Compound activity from PubChem BioAssay.
KCNQ2 inh: KCNQ2 channel blockers in CHO-K1 cells – cell-based, FluxOR thallium flux, B-score, primary screen (AID 2156). O88943. 20 min; active compounds read low; only compounds with negative scores are shown here; some inactives read as strong as hits. B-score at 10 µM. actives 1.1% (n = 310,000);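 active = fluorescence ratio B-score at most minus 3 library SDs, with starting brightness B-score within 2 library SDs, cut at about -5.5 in these data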
Target sequence (O88943 whole entry, looked up): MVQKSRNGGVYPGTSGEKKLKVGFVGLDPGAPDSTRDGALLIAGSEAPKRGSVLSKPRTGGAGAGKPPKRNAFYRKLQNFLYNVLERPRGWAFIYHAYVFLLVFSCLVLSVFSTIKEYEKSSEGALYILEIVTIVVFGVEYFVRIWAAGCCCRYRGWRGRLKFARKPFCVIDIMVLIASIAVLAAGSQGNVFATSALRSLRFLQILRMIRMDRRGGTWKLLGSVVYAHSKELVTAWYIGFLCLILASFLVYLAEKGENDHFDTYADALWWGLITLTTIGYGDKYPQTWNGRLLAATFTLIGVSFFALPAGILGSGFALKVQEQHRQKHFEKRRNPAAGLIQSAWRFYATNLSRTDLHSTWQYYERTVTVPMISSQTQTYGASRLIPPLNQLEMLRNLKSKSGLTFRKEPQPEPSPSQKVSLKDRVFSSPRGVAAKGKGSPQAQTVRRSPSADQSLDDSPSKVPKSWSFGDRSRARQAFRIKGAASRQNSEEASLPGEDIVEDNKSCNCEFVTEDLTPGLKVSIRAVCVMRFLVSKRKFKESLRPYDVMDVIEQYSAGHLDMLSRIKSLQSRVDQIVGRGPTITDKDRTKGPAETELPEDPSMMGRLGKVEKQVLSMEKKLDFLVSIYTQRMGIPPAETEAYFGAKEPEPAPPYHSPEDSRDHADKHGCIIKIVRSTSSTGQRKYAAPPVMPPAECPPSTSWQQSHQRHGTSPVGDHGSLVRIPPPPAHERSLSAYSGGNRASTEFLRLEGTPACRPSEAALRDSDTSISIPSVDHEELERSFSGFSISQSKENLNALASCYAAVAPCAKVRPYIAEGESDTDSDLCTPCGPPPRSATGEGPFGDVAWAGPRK
KCNQ2 inh baseline: second read-out of KCNQ2 inh, no call of its own (marks repeat the call); B-score; measured here: initial fluorescence intensity artifact check;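 brightness before thallium and not channel activity; 0 = typical well and far values either way flag optical interference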
The depositor's hits bear a star; i = inactive. Not all compounds are listed; count on the stated rates, not on these rows.

KCNQ2 inh	KCNQ2 inh baseline	Structure
i	-1.1	CCCCCCC1C(C#N)=C(N)OC2=C1C(=O)CCC2 (stereo unspecified)
i	-0.46	CC#CCN(CC#CC)S(=O)(=O)c1ccc(-n2cnnn2)c(OC)c1
i	0.25	Fc1cccc(NC(=S)NCCc2ccccc2)c1
i	0.34	Cc1nnc(SCCC#N)n(CCC#N)c1=O
i	0.01	COc1ccc(-n2c(=S)[nH]c3sc(-c4ccccc4)cc3c2=O)c(OC)c1
i	-2.6	CC(C)(C)c1ccc(N2C(=O)CC(C/C=C/c3ccccc3)C2=O)cc1 (stereo unspecified)
i	0.26	Cc1cc(C)nc(NC(=O)c2cccs2)n1
i	0.08	CCOc1cc(C2NC(=O)c3ccccc3O2)ccc1OC (stereo unspecified)
i	2.9	COc1ccc(Cl)cc1NC(=O)C/C(C)=N/NC(=O)c1ccccc1[N+](=O)[O-]
i	78	CCOc1ccc(/C=C2\CCCc3c2nc2ccccc2c3C(=O)O)cc1OC
i	-0.08	Nc1nnc(SCC(=O)OCC(=O)Nc2ccccc2F)s1
i	2.9	COc1cccc(NC(=O)CSc2nccn2-c2cccc(OC)c2)c1
i	-0.59	COc1ccc(-c2cc(C(=O)Nc3cccc(O)c3)no2)cc1
i	0.63	Cc1ccc2c(CC(=O)Nc3nc(C)cs3)coc2c1
i	0.96	Cc1nn2cc(-c3ccccc3)nc2s1

Given comma-delimited: part of the list above
smiles,KCNQ2 inh,KCNQ2 inh baseline
CC(C)(C)c1ccc(N2C(=O)CC(C/C=C/c3ccccc3)C2=O)cc1 (stereo unspecified),i,-2.6
COc1cccc(NC(=O)CSc2nccn2-c2cccc(OC)c2)c1,i,2.9
Cc1ccc2c(CC(=O)Nc3nc(C)cs3)coc2c1,i,0.63
Nc1nnc(SCC(=O)OCC(=O)Nc2ccccc2F)s1,i,-0.08
CCOc1ccc(/C=C2\CCCc3c2nc2ccccc2c3C(=O)O)cc1OC,i,78
Fc1cccc(NC(=S)NCCc2ccccc2)c1,i,0.25

The list continues:
KCNQ2 inh	KCNQ2 inh baseline	Structure
i	0.02	COc1cccc(C(=O)Oc2cc(C)[nH]c(=O)c2[N+](=O)[O-])c1OC
i	2.6	CC12CCC(C(=O)O)(c3nc(C#N)c(C#N)nc31)C2(C)C (stereo unspecified)
i	-0.5	O=C(NCc1ccco1)/C(=C/c1cccnc1)NC(=O)c1cccc(Br)c1
i	-0.03	O=C(OCc1ccccc1)/C(=C/c1ccccc1Cl)NC(=O)c1ccco1
i	-0.81	Cc1cc(C(=O)NCC2COc3ccccc3O2)c2ccccc2n1 (stereo unspecified)
i	1.3	CCCCC(CCCCl)C(=O)Nc1ccccc1 (stereo unspecified)
i	-2.5	N=c1c(S(=O)(=O)c2ccc(Br)cc2)cc2c(=O)n3ccccc3nc2n1C1CCCC1
i	0.84	CCCCN(C)C(=O)c1cn(CC)c2nc(C)ccc2c1=O
i	0.01	CC1OC(Nc2cccc3ccccc23)C(O)C(O)C1O (stereo unspecified)
i	0.25	Brc1ccc(C[n+]2ccccc2)cc1
-8*	3.5*	Cc1cccc(-c2noc(CN(C(=O)CCc3ccccc3)C(C)C)n2)c1
i	0.38	COc1ccc(CCNC(=S)Nc2cc(C)cc(C)c2)cc1
i	-0.04	Cc1ccccc1C(=O)N1CCN(c2ccc(NC(=O)CSc3ccc(Cl)cc3)cc2)CC1
i	0.84	CCOC(=O)C1=C(C)NC2=C(C(=O)CCC2)C1c1cn(Cc2ccc(Cl)cc2Cl)nc1-c1ccccc1 (stereo unspecified)
i	-0.41	CCN(CC)CCNC(=O)C(=O)Nc1cc2c3c(c1)CCC(=O)N3CCC2

Record cards, from the list above. Screens in order: KCNQ2 inh | KCNQ2 inh baseline
Profile of `CCCCN(C)C(=O)c1cn(CC)c2nc(C)ccc2c1=O` = i | 0.84
Profile of `CC12CCC(C(=O)O)(c3nc(C#N)c(C#N)nc31)C2(C)C` (stereo unspecified) = i | 2.6
Profile of `Cc1cccc(-c2noc(CN(C(=O)CCc3ccccc3)C(C)C)n2)c1` = -8* | 3.5*
Profile of `Cc1ccccc1C(=O)N1CCN(c2ccc(NC(=O)CSc3ccc(Cl)cc3)cc2)CC1` = i | -0.04
Profile of `COc1ccc(CCNC(=S)Nc2cc(C)cc(C)c2)cc1` = i | 0.38

Additional structures
KCNQ2 inh	KCNQ2 inh baseline	Structure
i	-0.62	Nc1ncnc2c1nc(Br)n2[C@@H]1O[C@@H]2COP(=O)(O)O[C@H]2[C@H]1O
i	-1.4	Cc1cc(Cl)ccc1OCCCC(=O)NCCc1nnc2ccccn12
i	0.28	CCCCn1c(N)c(N(CCOC)C(=O)c2cccc(-n3cnnn3)c2)c(=O)[nH]c1=O
i	1.2	COc1ccc(Cc2n[nH]c(=S)n2C)cc1Br
i	-0.61	O=C(N/C(=C/c1ccco1)C(=O)N1CCCCC1)c1cccs1
i	-0.14	COc1ccc(-n2nc3c(c2NC(=O)C2CC2)CS(=O)C3)cc1 (stereo unspecified)
i	-0.22	CC(C)c1ccccc1NC(=O)c1ccccc1NC(=O)C1CCCCC1
i	-0.2	CCOC(=O)C1CCC/C1=N\NC(=O)CN(c1cc(OC)ccc1OC)S(=O)(=O)c1ccccc1 (stereo unspecified)
i	-3.2	CC(C)(NO)/C(=N\O)c1ccccc1
i	0.13	COc1ccc(C(=O)O)cc1S(=O)(=O)N(CCc1ccccc1)Cc1ccccc1
i	-0.06	O=C1NC(=O)C(c2cn(-c3ccccc3)nc2-c2ccc(F)cc2)N1 (stereo unspecified)
i	0.94	O=C(NCc1cccnc1)c1ccc(=O)oc1
i	-0.33	CCOC(=O)c1c(NCC(C)C)c2ccccc2[nH]c1=O
i	-0.26	Cc1ccc(S(=O)(=O)N2CCOC2CNC(=O)C(=O)NCCN2CCOCC2)cc1 (stereo unspecified)
i	-0.57	COC(=O)C(CC(C)C)NC(=O)/C=C/c1ccc(Cl)cc1 (stereo unspecified)
i	0.67	COc1cc2[nH]c(=O)n(CCC(=O)NC3CCN(Cc4ccccc4)CC3)c(=O)c2cc1OC
i	0.61	O=S(=O)(c1cc(Cl)ccc1Cl)N1CCN(Cc2ccc3c(c2)OCO3)CC1
i	0.25	O=C(CCSc1ccc(Cl)cc1)N1CCN(c2ncccn2)CC1
i	0.33	c1csc(-c2nc(N3CCOCC3)c3ccccc3n2)c1
i	-0.25	C=C(C)COc1ccc(-c2nc(N)ncc2Oc2ccccc2OCC)c(O)c1
i	0.01	O=C(CCCOc1ccc(Cl)cc1Cl)Nc1nnc(C2CC2)s1
i	0.22	O=C(N1CCN(Cc2ccccc2)CC1)C(Cl)(Cl)Cl
i	0.04	CCC(C)(C)n1nnnc1C(c1ccccn1)N1CCN(c2cccc(OC)c2)CC1 (stereo unspecified)
i	0.36	CC1CN(C2CCN(S(=O)(=O)c3ccc(F)cc3)CC2)CC(C)O1 (stereo unspecified)
-6.5*	-1.4*	COc1ccc(-n2cccc2/C=C/[N+](=O)[O-])cc1
i	0.07	COc1ccc(/C=C(/NC(=O)c2ccco2)C(=O)Nc2ccc(C(C)=O)cc2)cc1
i	-0.36	O=C(Nc1ccc(N2CCN(C(=O)c3cccs3)CC2)cc1)c1ccc([N+](=O)[O-])o1
i	-0.79	CCCn1c(=O)c(Cc2ccccc2)c(O)c2ccccc21
i	-2.1	O=C1C2CCCN2C(=S)N1c1ccc(Cl)cc1 (stereo unspecified)
i	-1.6	CCOC(=O)CN1C(=O)C(Sc2n[nH]c(-c3cccc(C)c3)n2)CCc2ccccc21 (stereo unspecified)
i	-0.36	Cc1cc(C)c(C)c(S(=O)(=O)N2CCNCC2)c1C
i	-0.43	CCc1ccccc1NCC(=O)Nc1ccccc1C(=O)OC
i	-0.77	COc1cccc(Oc2cn[nH]c2-c2ccc(OC)cc2O)c1
i	1.9	COC(=O)C1=NN(C(C)=O)C2(CC(=O)N(c3cc(C)cc(C)c3)C2=O)C1 (stereo unspecified)
i	1.1	COc1ccc(-n2nc(C(=O)NCC(=O)N3CCCCC3)c3ccccc3c2=O)c(OC)c1
i	-0.59	CSCCC(NC(=O)c1ccccc1)C(=O)NNC(=O)c1csc(N2CCOCC2)n1 (stereo unspecified)
i	-4.2	CC(C)C(=O)NC(c1cccs1)c1cc([N+](=O)[O-])c2cccnc2c1O (stereo unspecified)
i	-0.36	S=C(NCCc1ccccn1)Nc1ccc(Cl)cc1Cl
i	-0.09	COc1ccc(N2CCN(C(=O)CSc3ncccc3-c3nc4ccccc4[nH]3)CC2)cc1
i	0.11	CC1CCCN(C(=O)COC(=O)c2ccc(=O)n(Cc3ccccc3)n2)C1 (stereo unspecified)
i	1.4	CCN(CC)C(=O)CCc1nnc(Cc2cccc(C(F)(F)F)c2)o1
-8*	0.79*	CN1/C(=C\C(=O)c2cncc(Br)c2)C(C)(C)c2ccccc21
i	3.4	CCOC(=O)C1CCCN(C(=O)Cc2ccc(Cl)cc2)C1 (stereo unspecified)
i	0.42	COc1nnc(-c2ccc(C)cc2)c2ccccc12
i	-2.6	O=C(COC(=O)c1ccccn1)Nc1c(Cl)cccc1Cl

Part of the list above, with values under each structure.
Each structure is followed by: KCNQ2 inh	KCNQ2 inh baseline
- CSCCC(NC(=O)c1ccccc1)C(=O)NNC(=O)c1csc(N2CCOCC2)n1 (stereo unspecified)
→ i	-0.59
- CC(C)C(=O)NC(c1cccs1)c1cc([N+](=O)[O-])c2cccnc2c1O (stereo unspecified)
→ i	-4.2
- S=C(NCCc1ccccn1)Nc1ccc(Cl)cc1Cl
→ i	-0.36

(list continues)
KCNQ2 inh	KCNQ2 inh baseline	Structure
i	1.2	COc1ccccc1CC1S/C(=N/N=C/c2ccco2)NC1=O (stereo unspecified)
i	-0.15	CC(=O)N1CCN(S(=O)(=O)c2cccc(C(=O)N(Cc3ccccc3)c3ccc(C)cc3)c2)CC1
i	-1.8	CCOC(=O)c1c(C)[nH]c(C)c1C(=O)Cn1nnc(-c2ccccc2C)n1
i	1.6	CCCC(=O)C1=C(c2ccccc2)C(C#N)(C#N)C(C#N)=C1N
i	3.2	Cc1ccc2nc(-c3ccccc3)cc(C(=O)NCCCn3ccnc3)c2c1
i	-2.2	CC(C)C[C@H](NC(=O)C1CC(=O)N(c2ccc3c(c2)OCCO3)C1)C(=O)NC1CCCC1 (stereo partly specified)
i	-0.42	Cc1ccsc1/C=N/Nc1ccc(Cl)nn1
i	0.01	O=C(CSc1nnc(CNC(=O)c2c(F)cccc2F)o1)Nc1ccc2c(c1)OCCO2
i	0.4	Cc1ccc(/C=N/Nc2nc(N3CCOCC3)nc(N3CCOCC3)n2)o1
i	-0.1	CCn1c(-c2csc3c2CCCC3)n[nH]c1=S
i	0.12	O=S(=O)(NCc1ccccc1)c1ccc(S(=O)(=O)N(Cc2ccccn2)Cc2ccco2)cc1
i	-0.11	Cc1ccc(Nc2nc(Cl)c(C=O)s2)cc1Cl
i	1.2	Cc1cc(C(=O)O)ccc1-c1ccc(CO)o1
i	0.55	O=C(O)c1cncc(C#CCC2CCCCC2)c1
i	-0.08	C=CCOC(=O)C1=C[C@@H](c2coc3ccccc3c2=O)C[C@@H](OCc2ccc(CO)cc2)O1
i	0.63	Cc1ccc(NCc2ccncc2)c(Br)c1
i	0.01	COc1cc(OC)c2c(c1)C(=O)OC2OC (stereo unspecified)
i	-1.2	Cc1nn(-c2ccccc2)c(NC(=O)c2ccccc2)c1Br
i	0.64	CCOC(=O)CSc1ncc(-c2cccc(Cl)c2)cn1
i	0.16	Cc1nc2cccc(C)n2c(=O)c1Cl
i	-0.95	COc1ccccc1CC1(C)NC(=O)N(CC(=O)N2CC(C)OC(C)C2)C1=O (stereo unspecified)
i	1.2	CC1CCC(NC(=O)COc2ccc(C(=O)c3ccccc3)cc2)CC1 (stereo unspecified)
i	-0.36	CN(CC(=O)Nc1nc2ccccc2s1)S(=O)(=O)c1ccc(Cl)cc1
i	0.82	Cc1nnc(SCc2ccccc2C#N)n1-c1ccccc1
i	0.3	Cc1ccccc1N1C(=O)[C@@H]2Cc3ccccc3CN2C1=O
i	1.3	COc1cc(Cl)c(C)cc1NC(=O)CCCn1c(=O)oc2ccccc21
-8.4*	-1.6*	CCO/C(C)=N/n1c2nc3ccccc3nc2c2c(=O)n(Cc3ccccc3Cl)c(C)nc21
i	-1	CC1CCCN(C(=O)/C(=C/c2ccco2)NC(=O)c2ccccc2)C1 (stereo unspecified)
i	-0.37	CC(=O)Nc1ccc(S(=O)(=O)N(C)CC(=O)NC2=NCCS2)cc1
i	2.3	Cc1ccc(-c2nn(CC(=O)N(C)C)c(=O)c3ccccc23)cc1S(=O)(=O)N(C)C
i	0.49	O=C(NC1CCCCCCC1)c1cc(-c2ccccn2)nc2ccccc12
i	1.9	COc1ccc(S(=O)(=O)N2CC(C)N(S(=O)(=O)c3ccc(OC)cc3)CC2C)cc1 (stereo unspecified)
i	0.98	COC(=O)c1ccc(NC(=O)CCS(=O)(=O)c2ccc(Br)cc2)cc1
i	0.09	COC(=O)c1ccccc1NC(=O)COC(=O)c1cccnc1
i	-1.2	CCOc1ccc(C(CC(=O)O)NC(=O)C(Sc2ccccc2)c2ccccc2)cc1 (stereo unspecified)
i	-0.39	C=CCN(CC=C)CC(O)Cn1c2ccccc2c2ccccc21 (stereo unspecified)
i	-3.2	COC(=O)c1ccc(/C=N/NC(=S)NC(C)C)cc1
i	-2.2	O=C(NCc1ccc(Cl)cc1)c1noc2c1CCCCC2
i	-0.01	COc1ccc(CNc2ccc3c(c2)ncn3-c2ccccc2OC)cc1
i	-0.9	CCOC(=O)C1CCCN(Cc2c(Cl)cccc2Cl)C1 (stereo unspecified)
i	1.4	N#Cc1nc(-c2cccs2)oc1NCc1ccco1
i	0.88	CCOC(=O)C1=C(c2ccccc2)OC(N)=C(C#N)C1c1ccncc1 (stereo unspecified)
i	-0.43	COC(=O)c1cc(Br)ccc1OC(=O)c1cccnc1
i	0.85	COc1ccc(Oc2coc3cc(OC(=O)N4CCOCC4)ccc3c2=O)cc1
